High-throughput results: PubChem, several laboratories
MT1-MMP act inh = blockers of MT1-MMP proenzyme processing, primary screen, HT1080 RFP-PRO-GFP cells, GFP/RFP fluorescence; Matrix metalloproteinase-14 (Homo sapiens), P50281; GFP/RFP ratio fluorescence, overnight; percent of plate control window, DMSO zero; GFP/RFP ratio change, % at 20 µM; 360,000 compounds, 0.061% hits; AID 651647, 2012;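 active = GFP/RFP ratio change of at least 30% with cell ATP level not reduced by more than half and red fluorescence within 50% of control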; note: strong numbers were not always called active
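Assay system: HT1080 RFP-PRO-GFP cells | Dosing: 20 µM single dose, 1% DMSO | Incubation: Cells overnight before dosing, compound overnight, 37 °C, 5% CO2 | Evaluation: GFP/RFP fluorescence ratio | Control set: DMSO-only wells and HT1080 RFP-L50D-GFP cell wells as references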
CSC inhib = cancer stem cell viability inhibitors, primary screen, luminescence; cancer stem cell-like cells viability; inhibition, % at 7.5 µM; AID 2717, 2010; 300,000 compounds, 1.1% hits;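 active = mean at 75% or more and at least half the replicates too; inconclusive = mean and replicates disagree; tested in HMLE shEcad cells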;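 note: 0% = median of negative and 100% = median of positive control wells; the first replicate is given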
Rce1 inhib = yeast Rce1p protease inhibitors, primary screen, biochemical, fluorescence, cell-free homogeneous; 290,000 compounds, 0.27% hits; yeast membranes, quenched prenylated peptide cleavage fluorescence; calls only; AID 2563, 2010; CAAX prenyl protease 2 (Saccharomyces cerevisiae (strain ATCC 204508 / S288c)), Q03530;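 active = fall in fluorescence gain of 50% or more versus controls, with final raw signal at or below 3038400; inconclusive = same 50% fall but final raw signal above 3038400; inactive = fall in fluorescence gain under 50%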;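 note: plate controls were neutral control wells for no effect and wells lacking membranes for full effect; tested at 10 µM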
Target sequence (Q03530 whole entry, looked up): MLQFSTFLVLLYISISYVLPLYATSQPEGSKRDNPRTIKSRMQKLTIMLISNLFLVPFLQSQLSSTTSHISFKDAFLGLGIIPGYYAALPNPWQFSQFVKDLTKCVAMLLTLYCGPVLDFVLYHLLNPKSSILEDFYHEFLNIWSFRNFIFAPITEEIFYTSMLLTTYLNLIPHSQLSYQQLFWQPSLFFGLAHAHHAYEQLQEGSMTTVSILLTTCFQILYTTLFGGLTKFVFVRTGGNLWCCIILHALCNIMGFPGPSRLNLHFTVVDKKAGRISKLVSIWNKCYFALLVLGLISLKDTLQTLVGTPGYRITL
Env fusion inh = inhibitors of HIV-1 Env-driven cell-cell fusion, primary screen, HeLa-JRFL effector, CEM21 target cells, luciferase. 360,000 compounds, 1.1% hits. inhibition, % at 12.3 µM;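 active = mean replicate inhibition score of at least 50 and every replicate individually at or above 50; inconclusive = only one of the two criteria met; inactive = mean below 50 and not all replicates reaching 50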;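 note: 0% = plate neutral controls and 100% = maraviroc near 300 nM; one replicate is shown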
PABP FP inh = PABP poly(A) RNA binding inhibitors, primary screen, biochemical, fluorescence polarization, uHTS; AID 2014, 2009; Polyadenylate-binding protein 1 (Homo sapiens), P11940; 290,000 compounds, 1% hits; inhibition, % at 35 µM;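 active = 50% or more with normal probe brightness, or confirmed in later tests; inconclusive = above 50% with abnormal brightness, or retests that disagree; inactive = below 50% or failed in later tests; about a fifth of its hits are not listed in these tables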;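 note: calls also rest on retests at 20 µM and on dose response follow-up; controls were probe without protein and protein plus probe with vehicle; some compounds called inactive have numbers as strong as hits; many hits fall short of the cut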
Target sequence (P11940 whole entry, looked up): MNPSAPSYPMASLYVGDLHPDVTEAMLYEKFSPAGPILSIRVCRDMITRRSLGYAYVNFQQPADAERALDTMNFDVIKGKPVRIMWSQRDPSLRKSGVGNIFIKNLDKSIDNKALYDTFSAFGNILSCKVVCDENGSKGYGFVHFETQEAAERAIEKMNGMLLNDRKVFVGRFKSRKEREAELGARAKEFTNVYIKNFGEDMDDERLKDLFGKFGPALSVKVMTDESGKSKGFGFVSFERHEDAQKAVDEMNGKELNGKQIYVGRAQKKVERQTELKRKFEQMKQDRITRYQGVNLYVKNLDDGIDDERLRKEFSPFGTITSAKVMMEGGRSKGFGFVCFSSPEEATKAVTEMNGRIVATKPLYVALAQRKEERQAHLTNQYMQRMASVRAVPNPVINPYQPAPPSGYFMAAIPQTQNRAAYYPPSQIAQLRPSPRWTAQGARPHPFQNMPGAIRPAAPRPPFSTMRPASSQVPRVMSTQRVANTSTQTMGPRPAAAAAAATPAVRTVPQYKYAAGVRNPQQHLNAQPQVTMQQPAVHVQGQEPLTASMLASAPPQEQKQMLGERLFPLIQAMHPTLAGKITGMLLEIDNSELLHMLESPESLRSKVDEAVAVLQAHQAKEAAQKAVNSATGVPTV
eIF4H inh = human eIF4H binding inhibitors, primary screen, translation initiation inhibitor project, biochemical, uHTS, fluorescence polarization. AID 2012, 2009. Eukaryotic translation initiation factor 4H (Homo sapiens), Q15056. eIF4H fluorescence polarization binding assay. 290,000 compounds, 0.94% hits. inhibition, % at 35 µM;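 active = 50% or more with normal probe brightness, or confirmed in later tests; inconclusive = above 50% with abnormal brightness, or retests that disagree; inactive = below 50% or failed in later tests; about a fifth of its hits are not listed in these tables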;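 note: calls also rest on retests at 20 µM and on dose response follow-up; 0% = protein and probe with vehicle and 100% = probe without protein; strong numbers were not always called active; many hits fall short of the cut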
Yeast UUG start = modulators of yeast start codon fidelity, primary screen, whole organism, S. cerevisiae, single point, plate reader. S. cerevisiae UUG-firefly luciferase reporter, luminescence/redox ratio. activity score, % at 18.7 µM. 350,000 compounds, 0.13% hits. AID 602363, 2012;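 active = replicate mean at a twofold rise or more, about +100% in these data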;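 note: firefly luciferase made from a UUG start codon reports start codon fidelity; reporter light over untreated wells divided by growth signal over untreated wells; some hits fall short of that in this replicate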
eIF4H inh retest = second read-out of eIF4H inh, no call of its own (marks repeat the call); inhibition, %; compound at 20 µM; confirmation average;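 mean of two retest wells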
PABP FP inh retest = recorded beside PABP FP inh, whose call it bears; inhibition, %; compound at 20 µM; confirmation repeats;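 mean of two retest wells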
MT1-MMP act inh RFP = second read-out of MT1-MMP act inh, no call of its own (marks repeat the call); RFP signal change, %; measured here: RFP expression control read;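 0 = vehicle wells; hits needed this value within 50% of zero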
The depositor's hits bear a star; i = inactive; ? = inconclusive; / = no result given. Hits appear at their usual frequency; any-hit rate near 2.9%.

SMILES | MT1-MMP act inh | MT1-MMP act inh RFP | CSC inhib | Rce1 inhib | Env fusion inh | PABP FP inh | eIF4H inh | Yeast UUG start | others
O=C(CCc1nnc(COc2ccccc2)o1)NCCc1cccs1 | 0 | 3 | -11 | i | 8 | 1 | -10 | /
Cc1cc(C)nc(NC(=O)c2ccc(COc3ccccc3Cl)cc2)c1 | -15 | -16 | 99* | i | -2 | -4 | -8 | 1
Cc1nnc(NC2=NCCC2)o1 | 5 | 0 | -13 | i | / | 6 | 0 | -15
COc1cc(F)ccc1-c1cc(C(=O)NCc2cccs2)[nH]n1 | 5 | 2 | / | / | -35 | / | / | -16
Cc1cc(C(=O)CSc2nc(N)cc(=O)[nH]2)c(C)n1CCc1ccc(F)cc1 | -10 | -25 | -1 | i | / | -2 | -6 | /
COc1ncnc2c1cnn2-c1ccccc1 | 3 | 2 | -9 | / | -173 | -1 | 8 | -5
CCOc1ccc(-n2c(SCC(=O)Nc3ccc(Br)cc3)nc3n[nH]c(C)c3c2=N)cc1 | -2 | -3 | / | i | -16 | 11 | -9 | /
CC(=O)NCCNC(=O)C1(C)Cc2c(-c3cccc(C(N)=O)c3)ccnc2O1 (stereo unspecified) | 9 | 12 | / | / | 6 | / | / | -23
OC(c1ccccc1)C(NCCNCc1ccccc1)c1ccccc1 (stereo unspecified) | 1 | 0 | / | / | -39 | / | / | -2
Cc1cccc2cc(COC(=O)c3cccs3)c(=O)[nH]c12 | 6 | 4 | -4 | i | -26 | -1 | 4 | -7
O=C(Nc1ccc(F)cc1)c1cc(-c2ccccc2)no1 | 2 | 1 | -8 | i | 5 | -9 | 0 | /
CCCc1nnc(SCC(=O)Nc2ccc(OCC)cc2)n1N | 4 | 5 | 7 | i | / | -5 | -1 | 0
Cc1c(S(=O)(=O)N2CCN(c3cccc(Cl)c3)CC2)c(=O)n(C)c(=O)n1C | 0 | 0 | -8 | i | -3 | 6 | -2 | -16
Cn1c(CNC(=O)CCNC(=O)c2ccccc2F)cc(=O)n(C)c1=O | -1 | 1 | -14 | i | 17 | -3 | 0 | -23
C=CCc1ccc(OCCn2cncn2)c(OC)c1 | 2 | 2 | -18 | i | -9 | 9 | -3 | -11
CCOC(=O)N1CCC(NC(=O)C2CCN(C(=O)N3CC(C)Oc4ccccc43)CC2)CC1 (stereo unspecified) | 4 | -1 | -15 | i | 29 | 0 | 3 | -7
O=C(Cc1c(F)cccc1Cl)Nc1nccs1 | 1 | 2 | -1 | i | 3 | -6 | -8 | -12
Cc1cc(C(c2ccc(C)o2)c2ccc(C)o2)c(O)c([N+](=O)[O-])c1 | 0 | 1 | 53 | i | -72 | 25 | 70 | -10 | eIF4H inh retest=33;PABP FP inh retest=42
N#CC1=C(N)Oc2cc(N)ccc2C1c1cccc(F)c1 (stereo unspecified) | -18 | -14 | 50 | i | -45 | 11 | -2 | -31
COc1cccc(NC(=O)C(c2ccccc2)N2CCCC2)c1 (stereo unspecified) | -1 | -1 | -2 | i | -5 | 3 | 0 | /
O=C(NCCc1ccccc1)C(=O)Nc1ccc2c(c1)OCCO2 | 2 | 2 | -8 | i | -7 | 9 | 1 | /
O=C(NCCCN1CCCC1=O)c1cccc(N2CCCC2=O)c1 | -4 | -2 | -1 | i | 21 | -4 | -3 | -8
COC(=O)c1c(C)[nH]c(C(=O)OCc2ccc(F)cc2)c1C | -12 | -9 | -5 | / | / | -7 | 3 | -15
Cc1cccc2c1CC(C)(C)NC2=C(C#N)C#N | -4 | 2 | 7 | i | / | -5 | -5 | -9
O=C(NCc1ccccc1)C(c1ccc(F)cc1)N(C(=O)c1csnn1)C1CC1 (stereo unspecified) | -2 | 3 | -17 | / | 1 | 10 | -9 | -16

An excerpt from above in order of count of non-hydrogen atoms, descending.
SMILES | MT1-MMP act inh | MT1-MMP act inh RFP | CSC inhib | Rce1 inhib | Env fusion inh | PABP FP inh | eIF4H inh | Yeast UUG start | others
Cc1cc(C(=O)CSc2nc(N)cc(=O)[nH]2)c(C)n1CCc1ccc(F)cc1 | -10 | -25 | -1 | i | / | -2 | -6 | /
Cc1c(S(=O)(=O)N2CCN(c3cccc(Cl)c3)CC2)c(=O)n(C)c(=O)n1C | 0 | 0 | -8 | i | -3 | 6 | -2 | -16
COc1cc(F)ccc1-c1cc(C(=O)NCc2cccs2)[nH]n1 | 5 | 2 | / | / | -35 | / | / | -16

The list continues:
SMILES | MT1-MMP act inh | MT1-MMP act inh RFP | CSC inhib | Rce1 inhib | Env fusion inh | PABP FP inh | eIF4H inh | Yeast UUG start | others
COc1ccccc1NC(=O)C(=O)NNS(=O)(=O)c1ccc2ccccc2c1 | -1 | 2 | -24 | i | 10 | -6 | -2 | -8
COc1ccccc1N=C(C)C1=C(O)CSC1=O | -1 | 0 | 6 | i | / | 36 | 1 | -22
Cc1c(NC(=S)N/N=C/c2ccc(O)cc2)c(=O)n(-c2ccccc2)n1C | 4 | 3 | / | i | / | 1 | -2 | -6
CC[C@]12c3[nH]c4ccccc4c3CCN1C(=O)C(CC(=O)NCCC1=CCCCC1)C[C@@H]2C(=O)N1CCN(C(=O)C2CC2)CC1 (stereo partly specified) | 6 | 1 | / | / | -92 | / | / | -18
CC(C)(C)OC(=O)NCCCC[C@H](NC(=O)c1nc[nH]c1C(=O)N1CCN(C(=O)OC(C)(C)C)CC1)C(=O)OC(C)(C)C | -2 | 3 | -3 | i | 10 | 0 | -1 | 0
Cc1ccc(/C=N/NC(=O)Cc2ccc(Cl)cc2)c(O)c1 | -1 | -5 | 56 | i | 14 | -10 | -8 | -16
O=C(c1nc2ccc(Cl)cn2c1CN1CCC(CO)CC1)N1CCc2ccccc2C1 | -1 | 2 | -13 | i | / | -8 | -8 | -1
COc1ccccc1/C=C(/NC(=O)c1ccccc1)C(=O)NCCN1CCOCC1 | -2 | -2 | -3 | i | -6 | 4 | -4 | /
CC(=O)N1C(C(=O)O)CSC1c1ccc(C)cc1 (stereo unspecified) | 1 | 4 | -9 | i | -6 | 10 | 5 | -10
C#CC[N+](CC)(CC)CC#Cc1cccc(Cl)c1 | 1 | 5 | 4 | i | / | 6 | -4 | -22
COc1ccc(NC(=S)NCc2ccccn2)cc1OC | -2 | 1 | -13 | i | -4 | 6 | 1 | /
CN(CC(=O)Nc1c(Cl)cccc1Cl)C(=O)C1CSC2(C)CCC(=O)N12 (stereo unspecified) | 2 | 1 | -16 | i | -6 | / | / | -5
O=C(O)CC(Sc1n[nH]c(=S)s1)C(=O)O (stereo unspecified) | -2 | 0 | 0 | i | 1 | 9 | 5 | -30
CC(C)(C)N(Cc1ccccc1)C(=O)COC(=O)Cn1[nH]c(=O)c2ccccc2c1=O | -7 | 2 | / | / | 27 | / | / | -12
O=C(CCCCCNc1nc(=S)[nH]c2ccccc12)NCCc1ccccc1 | 5 | -1 | 6 | i | -7 | 4 | -4 | /
CC(=Nc1cc(C(=O)c2ccccc2)ccc1N)C1=C(O)CC(C)(C)CC1=O | 5 | 3 | -2 | i | 7 | -5 | 14 | /
Cc1c(C(=O)N2CCN(C)CC2)oc2ccc(S(=O)(=O)N3CCOCC3)cc12 | 0 | -4 | 0 | / | -14 | -2 | -7 | -18
CCc1sc(C(=O)Nc2ccc(NC(C)=O)cc2)cc1C | 14 | 10 | 21 | i | 14 | -3 | -3 | /
O=C(NNC1=Nc2cc([N+](=O)[O-])ccc2OC1)c1ccccc1Cl | 17 | -4 | 6 | i | 4 | 4 | 7 | -8
COc1cccc(/C=N/NC(=O)CC2C(=O)NN=C2C)c1O (stereo unspecified) | 6 | 8 | 7 | i | 70* | 1 | 0 | -14
CCCCCC[n+]1c(-c2ccc(Cl)cc2Cl)csc1Nc1ccccc1 | -8 | -7 | 22 | i | 9 | -3 | 1 | 7
Cc1cc2nsnc2c(S(=O)(=O)NCC(=O)O)c1C | -1 | 1 | 14 | i | / | -6 | -11 | -12
CCCc1cc(=O)[nH]c(SCC(=O)NC(=O)c2ccccc2)n1 | 2 | 5 | -4 | i | / | 0 | -7 | /
CN1CCc2c(sc(/N=C/c3c[nH]c4ccccc34)c2C#N)C1 | -71 | 12 | -19 | i | -43 | ? | ? | -24
COc1cccc(-c2nnc3sc(-c4ccco4)nn23)c1 | -1 | -1 | -19 | i | -78 | 4 | 2 | -12
The listing continues:
SMILES | MT1-MMP act inh | MT1-MMP act inh RFP | CSC inhib | Rce1 inhib | Env fusion inh | PABP FP inh | eIF4H inh | Yeast UUG start | others
CC(=O)CCc1oc2ccc(C)cc2c1-c1ccc(C)o1 | -9 | 0 | 11 | i | 13 | 1 | 5 | /
C=CC[C@@H](CC(=O)N(CCO)Cc1ccccc1)C(=O)N[C@H](COC(=O)[C@@H](CC=C)Cc1ccc(F)cc1)C(C)(C)C | -43 | -39 | / | / | 34 | / | / | 3
CCN(CC)c1ccc(/C=N/NC(=O)c2ccc(Br)o2)cc1 | 0 | -1 | 39 | i | -62 | 9 | -4 | /
CCOc1ccc(OCC)c(NC(=O)C2CCCN2S(=O)(=O)c2cccc3cccnc23)c1 (stereo unspecified) | -5 | -13 | -5 | i | -21 | -9 | 0 | -6
CC(NC(=O)CCNC(=O)c1ccc(C(C)(C)C)cc1)c1ccccc1 (stereo unspecified) | 2 | 3 | -7 | / | -31 | / | / | 28
C=CCn1c(SCc2ccc(C(=O)Nc3nccs3)cc2)nnc1-c1ccc(C)c(Cl)c1 | -11 | -27 | 50 | i | 34 | 11 | -8 | -14
CCOc1ccccc1-n1nnnc1SCC(=O)Nc1cc(C)on1 | 0 | -1 | / | i | -28 | -12 | 2 | -1
COCCN(C(=O)c1csnn1)C(C(=O)NC1CCCCC1)c1ccc(C)cc1 (stereo unspecified) | -3 | 1 | -12 | i | -1 | 5 | -5 | 4
CC1CCc2c(sc3ncnc(NCc4cccnc4)c23)C1 (stereo unspecified) | 0 | -2 | -4 | i | 18 | 25 | -8 | /
CCO[C@H]1OC(C(=O)Nc2ccccc2)=C[C@@H](C2CC2)[C@@H]1CCCO | -2 | 1 | 37 | i | 2 | 4 | 3 | -4

Three records picked at random from the list so far, as already listed:
SMILES | MT1-MMP act inh | MT1-MMP act inh RFP | CSC inhib | Rce1 inhib | Env fusion inh | PABP FP inh | eIF4H inh | Yeast UUG start | others
CC1CCc2c(sc3ncnc(NCc4cccnc4)c23)C1 (stereo unspecified) | 0 | -2 | -4 | i | 18 | 25 | -8 | /
COCCN(C(=O)c1csnn1)C(C(=O)NC1CCCCC1)c1ccc(C)cc1 (stereo unspecified) | -3 | 1 | -12 | i | -1 | 5 | -5 | 4
CCOc1ccccc1-n1nnnc1SCC(=O)Nc1cc(C)on1 | 0 | -1 | / | i | -28 | -12 | 2 | -1
